StopGo reporter – lowers the luciferase signal of an FMDV 2A StopGo reporter. 410,000 tested, 1.2% active. Potency, µM (doses to about 57.9 µM), inactives show at the highest dose signal change, negative = less light. human cells with a luciferase reporter of 2A StopGo recoding; control for the full effect not named in the record; active = well fitted falling curve with a large enough effect; inconclusive = small, poorly fitted or top-dose-only effect; inactive = no such curve, though single readings can be large or run the other way; tested in HEK293T cells; further: on the % scale 0 is the no-effect control and ±100 the full control effect; nearly all actives have a fitted effect of over 45% in size; luciferase light after 4 h
Cruzain noTriton – cruzain (T. cruzi) inhibition without detergent. P25779. Potency, µM, inactives show max response, negative = inhibition, most hits filed as inhibitors. 200,000 tested, 2.3% active. purified cruzain, Z-FR-AMC fluorescence, no detergent. AID 1476; active means well fitted curve in the direction sought with a large enough effect; inconclusive means small, poorly fitted or top-dose-only effect, or another doubt; inactive means no such curve, though single readings can be large; an effect the other way counts as inactive or inconclusive;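 further: plate controls were enzyme without inhibitor for no effect and buffer without enzyme for full effect; nearly all actives have a fitted effect of over 40% in size; top concentration of the series not given in the record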
Target sequence (P25779 123-467 limits assumed): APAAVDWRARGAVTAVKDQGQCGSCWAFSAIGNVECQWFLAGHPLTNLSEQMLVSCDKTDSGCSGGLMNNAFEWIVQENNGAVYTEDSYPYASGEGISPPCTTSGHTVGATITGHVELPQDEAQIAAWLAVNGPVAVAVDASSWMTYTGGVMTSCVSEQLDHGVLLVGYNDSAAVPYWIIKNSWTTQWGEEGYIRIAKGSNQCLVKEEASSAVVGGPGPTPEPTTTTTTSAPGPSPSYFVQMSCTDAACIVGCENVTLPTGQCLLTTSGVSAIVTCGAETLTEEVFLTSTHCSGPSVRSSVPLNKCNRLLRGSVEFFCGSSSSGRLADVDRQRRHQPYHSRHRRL
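Detergent-free condition (0.00005% Triton X-100) in acetate buffer pH 5.5 with DTT. 1.5 nM enzyme and compound were pre-mixed 15 min, then 2 uM Z-FR-AMC substrate added; reaction progress from fluorescence change between first and third reads (60 s).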
Lassa entry inh – blocks Lassa virus binding to or entry into cells. Lassa virus pseudotype entry inhibition, cell reporter; control for the full effect not named in the record. Potency, µM (series often up to 37.9 µM), for inactives: at the top dose activity change, negative = inhibition, most hits filed as inhibitors. 300,000 tested, 1.2% active; active means well fitted inhibition curve with a large enough effect; inconclusive means small, poorly fitted or top-dose-only effect, or effect the other way; inactive means flat fitted curve, though single readings scatter; tested in HEK293 cells; further: on the % scale 0 is the no-effect control and ±100 the full control effect; nearly all actives have a fitted effect of over 50% in size; luciferase read-out
RE007 growth inh – less growth of the S. pombe RE007 Vpr strain. Potency, µM (doses to about 92.2 µM), for inactives: top-dose activity change, negative = less growth. S. pombe RE007 Vpr strain, BacTiter-Glo ATP luminescence, 24 h; control for the full effect not named in the record. 360,000 tested, 0.21% active. AID 651644; active = well fitted falling curve with a large enough effect; inconclusive = small, poorly fitted or top-dose-only effect; inactive = no such curve, though single readings can be large or run the other way;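 further: on the % scale 0 is the no-effect control and ±100 the full control effect; nearly all actives have a fitted effect of over 50% in size; the assay follows cell death caused by Vpr and the record does not say whether a fall means rescue or toxicity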
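Fission yeast strain RE007, carrying one chromosomally integrated HIV-1 vpr copy, was seeded at OD 0.01 in PMG+AL medium with 23 nL pinned compound. After 24 h at 30 °C and 99% humidity, viability was read by BacTiter-Glo luminescence.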
Cruzain Triton – cruzain (T. cruzi) inhibition with detergent. P25779. purified cruzain, Z-FR-AMC fluorescence, 0.01% Triton. Potency, µM, without a hit: max response, negative = inhibition, most hits filed as inhibitors. 200,000 tested, 0.43% active. AID 1478; active means well fitted curve in the direction sought with a large enough effect; inconclusive means small, poorly fitted or top-dose-only effect, or another doubt; inactive means no such curve, though single readings can be large; an effect the other way counts as inactive or inconclusive;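 further: plate controls were neutral wells for no effect and buffer without enzyme for full effect; nearly all actives have a fitted effect of over 40% in size; top concentration of the series not given in the record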
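Compounds were screened in titration against cruzain (1.5 nM) with 0.01% Triton X-100 to counter colloidal aggregation. Activity was the AMC fluorescence increase over 60 s after adding 2 uM Z-FR-AMC at pH 5.5.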
SARS PLP yeast – inhibitors of SARS-CoV papain-like protease in yeast | 330,000 tested, 0.19% active | S. cerevisiae expressing SARS-CoV PLpro, growth rescue; control for the full effect not named in the record | AID 485353 | Potency, µM (series often up to 32.9 µM), for the others: top-dose activity, positive = growth rescue; further: 0% is about no effect; nearly all actives have a fitted effect of over 55% in size; growth read by luminescence after 48 h
NS1 inh – inhibitors of influenza NS1 protein function | S. cerevisiae slowed by influenza A NS1, growth recovery by OD600 | Potency, µM (doses to about 46.1 µM), without a hit: at the top dose activity, positive = more growth | 270,000 tested, 0.4% active | AID 2326; further: actives are rising curves; nearly all actives have a fitted effect of over 50% in size
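S. cerevisiae expressing influenza A NS1, grown in glucose, washed, then diluted 1:100 into pH 6.0 -URA galactose medium with 23 nl compound. Growth recovery read as OD600; NS1-free strain serves as control.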
MARV entry inh – blocks Marburg virus binding to or entry into cells; Marburg virus pseudotyped entry inhibition, cell reporter; control for the full effect not named in the record; about a third of the inactives were read at about 46 µM; Potency, µM (highest dose often 37.8 µM), inactives show at the highest dose activity change, negative = inhibition, actives largely listed as inhibitors; 300,000 tested, 1.8% active; AID 540276; active = well fitted inhibition curve with a large enough effect; inconclusive = small, poorly fitted or top-dose-only effect, or effect the other way; inactive = flat fitted curve, though single readings scatter; tested in HEK293 cells; about a fifth of its hits are not listed in these tables; further: on the % scale 0 is the no-effect control and ±100 the full control effect; luciferase read-out
* hit, by the source's call; ? = inconclusive; . = no result given; & = joins results of further samples; [ ] = another dose, or the depositor's remark. Unless noted, the call rests on the fitted dose curve; in most records, active means well fitted rising curve with a large enough effect; inconclusive means small, poorly fitted or top-dose-only effect; inactive means no such curve, though single readings can be large or run the other way. Potency means the concentration at half of the fitted maximal effect.

SMILES	StopGo reporter	Cruzain noTriton	Lassa entry inh	RE007 growth inh	Cruzain Triton	SARS PLP yeast	NS1 inh	MARV entry inh
CCOc1ccc(C(=O)NC(C)CCc2ccccc2)cc1 (centres undefined)	0.0%	.	.	5.4%	.	4.0%	23.2%	.
CC(=O)Nc1ccccc1OCc1cnc(Cl)s1	6.8%	.	10.1%[46.1 µM]	17.4%	.	0.5%	2.7%	18.3%[46.1 µM]
Cc1ccc(C(=O)N2CCCCC2)cc1NC(=O)c1nsc2ccccc12	-18.8%	-11.1%	-4.9%[46.1 µM]	.	-4.9%	.	.	.
Cc1cccc(CCn2c(=O)c3ccccc3n(Cc3cccc(F)c3)c2=O)c1	-6.9%	2.9%	-13.0%[46.1 µM]	.	-0.5%	.	.	0.6%[46.1 µM]
Cc1ccc(S(=O)(=O)NCC2CCC(C(=O)NCCCN3CCCC3=O)CC2)cc1 (centres undefined)	20.2%	.	-2.7%[46.1 µM]	3.5%	.	8.1%	7.4%	-0.2%[46.1 µM]
CN(Cc1cccc(Cl)c1Cl)C(=O)CCNC(=O)c1ccco1	-2.9%	.	-21.2%[46.1 µM]	1.6%	.	-5.9%	.	-3.4%[46.1 µM]
CCOc1ccc(C2CC(=O)NC3=C2C(=O)CCC3)cc1Cl (centres undefined)	?	-7.4%	5.2%	-7.0%	5.6%	6.6%	2.1%	17.6%
CCc1nc(C)cn1S(=O)(=O)c1ccc(Cl)c(Cl)c1OC	?	-7.5%	-18.5%[46.1 µM]	.	-8.7%	.	.	?
COc1ccc(N2CCN(S(=O)(=O)c3cccc(C(F)(F)F)c3)CC2)cc1	-9.5%	-1.7%	-9.0%	-0.2%	2.3%	0.3%	-1.3%	0.8%
COc1cccc2cc(C(N)=O)oc12	15.8%	.	6.1%[46.1 µM]	3.4%	.	-0.7%	4.8%	3.6%[46.1 µM]
Cc1cc(N)c2cc(NC(=O)/C=C/c3ccccc3Cl)ccc2n1	?	.	.	19.6%	.	-0.1%	-1.0%	.
CC1(OC(=O)CCc2ccccc2)C(=O)C=C2C=C(c3ccc(C#N)cc3)N(CCc3c[nH]c4ccccc34)C=C2C1=O (centres undefined)	-3.3%	.	.	-4.8%	.	-0.9%	15.5%	.
COc1cc(OC)cc(C(=O)Nc2nc(CC(=O)NCCc3ccccc3)cs2)c1	-6.7%	.	-7.0%	1.1%	.	-1.6%	.	25.2%
COC(=O)c1sc(S(=O)(=O)Nc2ccc(C)c(C)c2)c(C(=O)OC)c1C	74.8%[activator]	-2.4%	?	-1.8%	-11.2%	-13.4%	-11.1%	2.6%
COc1ccc(CC(=O)Oc2cc(C)[nH]c(=O)c2[N+](=O)[O-])cc1	-3.7%	-5.1%	4.9%	-5.7%	-0.8%	14.2%	2.4%	?
CSc1nnc(NC(=O)c2ccco2)s1	0.0%	.	0.0%	-20.6%	.	-6.5%	-43.2%	7.9%
COc1cc(C(=O)N=c2sccn2C)c([N+](=O)[O-])cc1OC	9.1%	.	17.1%[46.1 µM]	-2.5%	.	5.9%	25.0%	6.5%[46.1 µM]
CCCCSc1nnc2nc(C)cc(C)n12	68.1%[activator]	11.2%	?	23.1%	-2.7%	7.8%	-7.7%	?
O=C(N/N=C/c1cccc([N+](=O)[O-])c1)c1ccc2c(c1)OCCO2	-12.1%	4.7%	6.2%	7.0%	-5.3%	0.5%	-2.3%	-1.0%
COc1ccc(S(=O)(=O)N2CCN(c3ccc(C)cc3C)CC2)cc1OC	-8.8%	?	.	1.9%	-4.4%	-20.2%	-58.9%	0.3%
COc1ccc(NC(=O)C2CCCN2c2nn3c(=O)cc(C)nc3s2)cc1 (centres undefined)	-3.8%	.	.	-6.0%	.	-0.1%	4.4%	.
O=S(=O)(NC(=NC1CCCCC1)c1ccccc1)c1ccccc1	12.2%	.	1.6%	-14.4%	.	-8.9%	12.0%	-10.5%
COc1ccc(N=C(C)c2c(O)[nH]c(=O)[nH]c2=O)cc1	8.4%	.	.	-13.3%	.	0.6%	8.8%	.
Cc1nc(Cl)c2c(n1)NC(=O)CO2	-1.9%	.	.	-9.4%	.	0.7%	-5.0%	.
C=C(C)c1nc(N)nc(N)n1	-29.5%	2.4%	-21.6%	-2.4%	-4.1%	0.5%	10.7%	-10.0%
CCN1CCN(Cc2ccc(NC(=O)c3cc(NC(=O)C(=O)c4c[nH]c5ccccc45)cc(OC)c3)cc2C(F)(F)F)CC1	?	.	.	5.4%&-5.0%	.	1.2%	-0.1%	.
C=C(C)c1cccc(C(C)(C)NC(=O)N2CCC(C)CC2)c1	0.1%	7.1%	-9.8%	4.2%	-1.3%	-3.5%	-3.5%	1.5%
Cn1c(N)c(C(=O)CCl)c(=O)n(Cc2ccccc2)c1=O	28.2µM*	-6.0%	-1.1%	1.2%	-1.8%	-9.3%	25.1%	4.0%
Cc1cc(C)c(S(=O)(=O)N2CCCC(C(=O)N3CCCC3)C2)c(C)c1 (centres undefined)	-12.1%	.	-3.4%	6.6%	.	-1.7%	-15.0%	-16.0%
COC(=O)NC(CCc1ccccc1)C(C(=O)OC)C(=O)OC (centres undefined)	.	4.4%	?	.	0.4%	.	.	13.1%&13.1%[14.2 µM]
Cc1ccc(S(=O)(=O)N2CC(O)CC2C(=O)OCC(=O)Nc2ccc([N+](=O)[O-])cc2C(F)(F)F)cc1C (centres undefined)	-9.0%	.	12.7%	-3.4%	.	-0.9%	.	5.3%
CCOC(=O)N1CCN(C(=O)c2ccc3c(c2)NC(=O)C(N2CCOCC2)S3)CC1 (centres undefined)	-28.2%	1.6%	4.1%	-3.8%	0.6%	0.3%	-1.7%	3.6%
O=C(CCC(=O)N1CCOc2ccccc21)NCCCN1CCN(Cc2ccccc2)CC1	-19.7%	.	.	3.0%	.	-1.6%	28.2%	.
O=C(NCc1ccc(F)cc1)C(c1ccncc1)N(C(=O)c1csnn1)C1CC1 (centres undefined)	12.3%	-5.2%	5.6%	-18.7%	5.2%	-12.9%	-7.9%	14.4%
c1ccc(CCNCc2cccs2)cc1	-1.2%	.	.	-8.0%	.	2.5%	11.7%	.
Cc1cccc(C(=O)NCCN(C)C)c1	-18.8%	-6.2%	5.5%	-1.7%	2.9%	7.3%	4.1%	0.0%
O=C(O)C(CCCCNS(=O)(=O)c1ccc(F)cc1)NS(=O)(=O)c1ccc(F)cc1 (centres undefined)	-19.0%&14.8%	.	-5.6%	-3.3%&-18.0%	.	4.0%&0.3%	1.9%&9.1%	6.5%[46.1 µM]
COc1ccc(-n2c(C)ccc2C)c([N+](=O)[O-])c1	4.3%	.	-14.5%	-7.2%	.	-0.4%	7.8%	?
CCOC(=O)c1oc2c(CN3CCCCC3C)c(O)ccc2c(=O)c1-c1ccc(OC)c(OC)c1 (centres undefined)	-28.7%	-16.9%	10.7%	-9.5%	-6.5%	2.0%	7.6%	13.2%&13.2%
O=C(COc1ncnc2ccc(Br)cc12)Nc1ccc(N2CCOCC2)cc1	8.7%	8.0%	11.4%	1.0%	-1.7%	-4.6%	-2.0%	0.1%&0.1%
Cc1ccc(CNC(=O)C2c3ccccc3C(=O)N3CCc4ccccc4C23)o1 (centres undefined)	-13.9%	-11.1%	-23.8%	-2.4%	-4.3%	7.6%	-9.3%	-17.4%
O=C(CCCCC(=O)NNC(=O)COc1ccccc1)NNC(=O)COc1ccccc1	27.4%	.	23.0%[46.1 µM]	2.6%	.	-6.4%	-6.8%	15.6%[46.1 µM]
CCc1ccc(-c2cc(C(=O)N3N=C(C(F)F)CC3(O)C(F)F)c3ccccc3n2)cc1 (centres undefined)	5.8%	-4.8%	-6.7%	-29.5%	-6.9%	-32.9%	-37.6%	?
Cc1cc(C)n2nc(C(=O)OCC(=O)c3ccc(F)cc3)nc2n1	15.9%	.	1.8%	-12.7%	.	0.3%	.	20.1%
COc1ccc(S(=O)(=O)n2nc(-c3ccc(Cl)cc3)cc2N)cc1OC	-13.0%	-18.3%	.	-3.3%	-6.2%	10.0%	-1.3%	.
COc1ccc(-c2cc(C(F)(F)F)nc(SCC(=O)Nc3ccc(C(C)=O)cc3)n2)cc1	-28.0%	9.3%	-12.7%[46.1 µM]	.	-2.1%	.	.	?
NS(=O)(=O)c1cc(C(=O)Nc2ccc3c(c2)OCCCO3)ccc1Cl	27.5%	.	1.5%[46.1 µM]	0.2%	.	-0.9%	4.3%	?
Cc1cccc[n+]1CC(=O)Nc1ccc([N+](=O)[O-])cc1Cl	10.5%	0.0%	8.7%	-11.5%	-0.2%	0.8%	-12.9%	?
NC(=O)c1ccccc1N(Cc1ccccc1)S(=O)(=O)c1ccccc1	-13.5%	.	-13.9%[46.1 µM]	0.0%	.	-1.7%	4.1%	14.3%[46.1 µM]
CCCNC(=O)c1ccc(Cn2c(SCC(=O)NC(C)C)nc3ccccc3c2=O)cc1	9.5%	6.6%	-1.2%[46.1 µM]	.	0.3%	.	.	.

Some of the entries so far, bar-delimited.
molecule | StopGo reporter | Cruzain noTriton | Lassa entry inh | RE007 growth inh | Cruzain Triton | SARS PLP yeast | NS1 inh | MARV entry inh
NC(=O)c1ccccc1N(Cc1ccccc1)S(=O)(=O)c1ccccc1 | -13.5% | . | -13.9%[46.1 µM] | 0.0% | . | -1.7% | 4.1% | 14.3%[46.1 µM]
NS(=O)(=O)c1cc(C(=O)Nc2ccc3c(c2)OCCCO3)ccc1Cl | 27.5% | . | 1.5%[46.1 µM] | 0.2% | . | -0.9% | 4.3% | ?
CCCNC(=O)c1ccc(Cn2c(SCC(=O)NC(C)C)nc3ccccc3c2=O)cc1 | 9.5% | 6.6% | -1.2%[46.1 µM] | . | 0.3% | . | . | .
Cc1cccc[n+]1CC(=O)Nc1ccc([N+](=O)[O-])cc1Cl | 10.5% | 0.0% | 8.7% | -11.5% | -0.2% | 0.8% | -12.9% | ?
COc1ccc(-c2cc(C(F)(F)F)nc(SCC(=O)Nc3ccc(C(C)=O)cc3)n2)cc1 | -28.0% | 9.3% | -12.7%[46.1 µM] | . | -2.1% | . | . | ?

From PubChem BioAssay

This is a random part of the collection; 4.7% or so of the library scored in one or more.
